# Screening data: PubChem BioAssay, several laboratories
# Arbovirus anti: antivirals against arbovirus infection, primary screen, cell-based, full library, 10K replicate subset; arbovirus infection cell-based antiviral screen; AID 1251, 2008; 0.37% of 200,000 active; inhibition, % at 10 µM;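 active = inhibition from about 30%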;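 also: bluetongue infection of BSR cells; cell survival read as ATP light after 72 h; 0% = infected wells without compound and 100% = uninfected wells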
# Mtb H37Rv: M. tuberculosis H37Rv growth inhibitors, H37Rv strain (AID 1626). M. tuberculosis H37Rv growth inhibition; higher % means a stronger effect. one-dose inhibition, % at 10 µM; IC50 in µM for titrated hits. 0.95% of 220,000 active;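 active = confirmed in a dose series; inconclusive = inhibition above 80% but not taken into the dose series; inactive = below 80% or under 30% at every dose of the series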;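 also: bacteria incubated seven days before Alamar blue readout; 0% = bacteria only wells and 100% = bacteria with antibiotic wells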
# YopH PTP inh: YopH tyrosine phosphatase inhibitors, primary screen, biochemical, fluorescence Ex485/Em525; YopH tyrosine phosphatase [Yersinia enterocolitica]; AID 898, 2007; 0.16% of 140,000 active; inhibition, %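 (about 10 µM by stock and volumes)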;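 active = inhibition of 50% or more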;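 also: controls were vehicle for no effect and minimum signal wells for full effect; inactives centre near -20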
# Mtb betalactam: beta-lactam sensitization of Mtb H37Rv, H37Rv | M. tuberculosis H37Rv growth with meropenem, percent inhibition; hits of this screen are not shown here | inhibition, % at 25 µM | 0.27% of 330,000 active;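 active = about 74% or more and at least 40 points above the plate without the antibiotic, then above 30% in a dose series; inconclusive = first-round hits that could not be retested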;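 also: growth measured after seven days incubation then overnight dye step; 0% = bacteria only wells and 100% = bacteria with antibiotic; twin plates without the antibiotic show which effects depend on it; some results filed as inactive read as strong as hits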
# RecA splice inh: Mtb RecA intein splicing inhibitors, primary screen, biochemical, fluorescence, HTS; Protein RecA (Mycobacterium tuberculosis (strain ATCC 25618 / H37Rv)), P9WHJ3; 0.75% of 290,000 active; cell-free RecA intein splicing; AID 2221, 2009; inhibition, %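 (about 9 µM by stock and volumes)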; in the data active = inhibition above about 30%; inconclusive = no clear call, values can overlap the other calls;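 also: 0% = vehicle wells and 100% = reference inhibitor control wells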
# Target sequence (P9WHJ3 whole entry, looked up, canonical isoform): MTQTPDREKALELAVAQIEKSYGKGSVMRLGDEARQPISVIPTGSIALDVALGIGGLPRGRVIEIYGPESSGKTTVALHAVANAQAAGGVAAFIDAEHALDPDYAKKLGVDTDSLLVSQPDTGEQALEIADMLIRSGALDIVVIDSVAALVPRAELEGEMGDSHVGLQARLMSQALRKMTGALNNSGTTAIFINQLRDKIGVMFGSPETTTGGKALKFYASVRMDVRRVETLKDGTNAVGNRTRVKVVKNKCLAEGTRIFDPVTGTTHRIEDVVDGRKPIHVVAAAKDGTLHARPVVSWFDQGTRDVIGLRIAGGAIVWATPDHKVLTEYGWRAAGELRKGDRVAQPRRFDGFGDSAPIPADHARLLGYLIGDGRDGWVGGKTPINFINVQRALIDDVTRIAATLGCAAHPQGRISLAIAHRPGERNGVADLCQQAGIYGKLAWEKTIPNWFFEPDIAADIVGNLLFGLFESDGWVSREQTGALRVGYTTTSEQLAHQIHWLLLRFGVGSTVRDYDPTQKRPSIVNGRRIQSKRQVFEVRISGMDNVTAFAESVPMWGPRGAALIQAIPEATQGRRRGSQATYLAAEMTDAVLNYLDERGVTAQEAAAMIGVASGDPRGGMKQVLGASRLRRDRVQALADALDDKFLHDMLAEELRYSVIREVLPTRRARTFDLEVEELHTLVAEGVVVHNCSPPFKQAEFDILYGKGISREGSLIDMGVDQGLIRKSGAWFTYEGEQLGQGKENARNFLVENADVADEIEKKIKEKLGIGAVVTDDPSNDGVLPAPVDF
# Arbovirus anti repeat: recorded beside Arbovirus anti, whose call it bears; inhibition, %; measured here: 10K subset replicate screen; many hits read low in the repeat;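 first of two repeat runs on a subset; 0% = infected and 100% = uninfected wells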
# Starred values were filed as active, the others as inactive; ? = inconclusive; · = no result given. This is a subset; count on the stated rates, not on these rows.
SMILES,Arbovirus anti,Mtb H37Rv,YopH PTP inh,Mtb betalactam,RecA splice inh,others
COc1cccc(C(=O)N2CCN(S(=O)(=O)Cc3ccccc3)CC2)c1OC,15,-1%,-31,-5,-1.5,
O=S(=O)(NC1CC1)c1ccc(S(=O)(=O)N(Cc2ccccn2)C2CCCC2)cc1,-6,-5%,-7,-3,1.5,
CCCCCCNC(=O)CC(NS(=O)(=O)c1ccc(OC)cc1)C(C)C (stereo not given),-1,-2%,-23,-8,0.9,
CN(C)C(CNC(C(=O)Nc1ccc([N+](=O)[O-])cc1Br)c1ccccc1)c1ccccc1 (stereo not given),-1,15%,·,-9,3.6,
Cc1ncc([N+](=O)[O-])n1CC(=O)Nc1ccc(F)c(F)c1,·,·,·,8,-5.4,
NC(=O)c1cc(-c2ccccc2)sc1NC(=O)CN1CCCCC1,5,43%,5,95,3.0,
COc1ccccc1C(=O)Nc1ccc(Br)c2cccnc12,·,·,·,38,3.1,
CC(C(=O)c1c[nH]c(C(=O)N=CN(C)C)c1)c1ncc(C(F)(F)F)cc1Cl (stereo not given),7,-2%,·,-6,-1.0,
CC(C)(C)NC(=O)NC(=O)COc1ccc(Br)cc1Br,-3,8%,-30,1,10,
CCCn1c(SCC(=O)Nc2ccc3c(c2)OCO3)nc2c1c(=O)n(C)c(=O)n2C,-9,-5%,-34,-10,-6.5,
CCOc1ccc(Br)cc1C(=O)N/N=C/c1cccc(C)n1,·,·,·,2,-2.0,
COc1cccc(-c2nnn(CC(=O)NC3CCCC3)n2)c1OC,5,-6%,-38,-10,-1.3,
CC1CCCC(C)N1C(=O)COC(=O)c1cc(Br)ccc1Cl (stereo not given),5,?,·,64,·,
CCCNC(=O)NS(=O)(=O)c1ccc(Cl)cc1,0,-13%,-44,-2,-1.7,
COc1ccc(/C=C2\SC(=O)N(CCC(=O)N3CCCCC3)C2=O)cc1OC,·,·,·,-4,0.4,
C[C@]12C(=O)N(c3cccc(Cl)c3)C(=O)N1[C@H]1c3ccccc3OC[C@@H]1[C@H]2c1ccccc1,·,·,·,97,3.8,
Cc1ccc(SCn2nnc3ccccc3c2=O)c(C)c1,-12,-6%,·,10,5.3,
CCOc1cc(/C=C/c2cc(C(=O)O)c3ccccc3n2)ccc1O,3,8%,-18,5,0.9,
CCOC(=O)c1c(SC)n(-c2ccccc2)c(=S)n(-c2ccccc2)c1=O,·,·,·,-1,3.2,
C=CCN(C(=O)CCC(=O)Nc1cc(C)on1)C(C(=O)NC1CCCC1)c1ccc(OC)cc1OC (stereo not given),·,·,·,-5,-0.7,
O=C(NS(=O)(=O)c1ccccc1)c1ccccc1O,11,-5%,-2,2,·,
COc1cccc(NC(=O)c2cc([N+](=O)[O-])ccc2NCc2cccnc2)c1,-11,6%,-15,0,2.9,
CCN(CC)c1ccc(/C=N/NC(=O)Cc2cccs2)c(O)c1,-36,-11%,-27,-3,0.9,
O=C(CSc1ccccc1Cl)N1CCOCC1,·,·,·,-1,-3.3,
COc1ccccc1C(=O)NNC(=O)c1ccccc1F,-13,1%,-42,2,-3.5,
COc1cc(C(=O)Nc2ccc3c(c2)OCCO3)ccc1OC(C)C,5,-3%,-22,-5,2.3,
O=C(COc1cc2oc(=O)cc(-c3ccccc3)c2cc1Cl)NCC1CCC(C(=O)O)CC1 (stereo not given),·,·,·,-11,-1.1,
NCCCCCc1nnc(SCC(=O)c2ccc(Cl)cc2)o1,-1,-8%,-1,-5,-1.4,
COc1cc(/C=C/C(=O)NCc2cccnc2)cc(OC)c1OC,4,8%,4,-7,1.2,
Cc1cc([N+](=O)[O-])nn1CC(=O)NCCCn1ccnc1,6,1%,·,3,3.8,
CSc1ncccc1C(=O)OCC(=O)N(CC(C)C)C1CCS(=O)(=O)C1 (stereo not given),6,-6%,-11,-9,-0.5,
Cn1cc(CCC(=O)NCc2ccc(Cl)cc2)c2ccccc21,·,·,·,2,4.3,
CCOC(=O)N1CCC(NC(=O)c2cc(S(=O)(=O)N(CC)CC)ccc2F)CC1,0,-12%,3,-2,-0.4,
CCCCNC(=O)Nc1c(C(=O)OCC)[nH]c2ccccc12,-16,-4%,-41,0,0.6,
O=C1/C(=C/c2ccc(O)cc2)SC(=S)N1CC1CCCO1 (stereo not given),·,-12%,·,-2,0.2,
O=C(Nc1ccc2nc(-c3ccco3)c(-c3ccco3)nc2c1)NC1CC1,7,·,3,·,-92,
Cc1c(C)n(CCc2ccccc2)c2ncnc(NCCCO)c12,·,·,·,3,1.2,
O=C(CCCN1C(=O)C2C3C=CC(C3)C2C1=O)N1CCN(c2ccccc2)CC1 (stereo not given),-1,·,-34,-17,-0.2,
COc1ccc(CC(=O)NC(c2ccccc2)c2ccc(C)cc2)c(OC)c1 (stereo not given),·,·,·,5,-4.2,
O=C(NCc1cccnc1)C(=O)NCC1OCCCN1S(=O)(=O)c1ccc(F)cc1 (stereo not given),·,·,·,-6,-2.5,
CCc1cc2c(=O)c(-c3nc4ccccc4n3C)c(C)oc2c(CN2CCOCC2)c1O,13,-10%,-29,-6,-3.7,
CC(=O)Nc1ccc(NC(=O)Nc2ccc3c(c2)N(C)C(=O)CS3)cc1,-9,-1%,·,-4,-1.0,
c1cncc(CNc2ncnc3sccc23)c1,7,-3%,·,-1,-0.6,
O=C(Nn1cnnc1)c1cc([N+](=O)[O-])cc([N+](=O)[O-])c1,-3,-6%,-44,3,-2.0,
Cn1c(NCCO)nc2c1c(=O)n(Cc1cccc(Cl)c1)c(=O)n2C,·,·,·,1,2.0,
CCCNC(=O)c1ccc2snnc2c1,-8,5%,-18,-3,2.6,
C#CCOCCOCCOCCNc1nc(N2CCN(C(=O)[C@H](CCC(=O)O)n3cc(C(N)CO)nn3)CC2)nc(N2CCN(C(=O)[C@H](Cc3ccc(O)cc3)n3cc(C(N)[C@H](C)CC)nn3)CC2)n1 (stereo not given in full),2,-12%,·,-4,-1.2,
Cc1ccc(-n2cc(CN(C)Cc3ncc[nH]3)c(-c3cccc(C)c3)n2)cc1,-8,10µM*,·,99,0.5,
COc1ccc(NC(=O)CSc2ccc(C)cc2)cc1,-6,?,-15,97,1.4,
N=c1n(Cc2ccc(Cl)cc2)c2ccccc2n1CC(O)COc1ccccc1 (stereo not given),-35,-6%,·,90,14,
CCCCOc1ccc(C(=O)Nc2ccc(OCC(=O)N3CCOCC3)cc2)cc1,·,·,·,?,1.8,
CCCCC(=O)Nc1cc(C(=O)NCCc2ccccc2)ccc1Cl,-7,-6%,8,1,-1.5,
CC(=O)c1c(N2CCN(CCO)CC2)nc(=S)n(-c2ccccc2)c1C,-2,-1%,·,3,-3.8,
N#CC1=C(N)Oc2cc(O)ccc2C1c1cccnc1 (stereo not given),15,-3%,·,-3,·,
CCc1ccccc1NC(=O)c1cc(C2CC2)on1,5,8%,-27,15,-0.9,Arbovirus anti repeat=1
Cc1nc(CS(=O)(=O)c2ccc(Cl)cc2)cc(Sc2ccc(Cl)cc2)n1,0,9%,-43,37,7.1,
Cc1cc(C(=O)NCc2ccccc2Cl)c2ccccc2n1,·,·,·,5,1.0,
Cn1c2ccccc2c2cnn(CC(=O)O)c(=O)c21,2,-14%,-34,-4,-0.8,
CCc1ccc(OCc2n[nH]c(=S)n2C(C)CCCC(C)C)cc1 (stereo not given),-9,6%,·,2,19,
CSc1cccc(NC(=S)N2CCC(N(C)C3CCCCC3C)CC2)c1 (stereo not given),-7,1%,·,-4,-2.0,

# New compounds follow.
SMILES,Arbovirus anti,Mtb H37Rv,YopH PTP inh,Mtb betalactam,RecA splice inh,others
O=C(Nc1ccccc1)c1cnc[nH]1,9,·,-31,3,1.0,
CC(C)C(NC(=O)C1CCCCC1)C(=O)Nc1ccncc1 (stereo not given),5,-3%,-1,-12,-5.9,
O=C(N/N=C/c1ccc([N+](=O)[O-])o1)c1ccccc1NS(=O)(=O)c1cccs1,·,2%,·,99,40*,
Cc1ccc(/C=C2/SC(=S)N(CCC(=O)N3CCN(C)CC3)C2=O)cc1,4,-4%,·,-5,2.4,
CC(NC(=O)CSc1nc2ccccc2c(=O)n1CCCO)c1ccccc1 (stereo not given),-7,-3%,2,6,-2.3,
Cc1n[nH]c(=O)c2ccccc12,·,-2%,·,-2,0.6,
CC(=O)c1cccc(NC(=O)N2CCC(NC(=O)c3ccco3)CC2)c1,·,·,·,0,-1.1,
CN(Cc1ccc(F)cc1)C(=O)c1ccc(NS(=O)(=O)c2ccccc2)cc1,·,·,·,-1,2.8,
CCC(=O)OC1(C)C(=O)C=C2C=C(c3ccc(C#N)cc3)OC=C2C1=O (stereo not given),·,-4%,·,10,-6.4,
CCOc1ccccc1NC(=O)CSc1nnc(-c2cccnc2)o1,·,·,·,-5,2.6,
c1ccc(-c2noc(-c3ccc4c(c3)OCO4)n2)nc1,-22,-1%,-26,-4,-1.9,
COc1ccc(CC(=O)N(Cc2cc3cc(OC)ccc3[nH]c2=O)C(C)C)cc1,-6,-1%,-28,1,-4.4,
NNc1nnc(-c2ccccc2)c(-c2ccccc2)n1,-27,-5%,-19,4,-3.6,
COc1ccc(CCNC(=O)Cc2cccs2)cc1,-3,4%,-24,9,0.2,
Brc1cc(Br)c2nc3c(cc2c1)CCC3,·,·,·,46,-2.1,
O=C(NCc1ccncc1)C1CCC(=O)N(CCc2ccc(Cl)cc2)C1 (stereo not given),·,·,·,-1,1.4,
O=C(NCC(c1ccco1)N1CCCCC1)c1cccc(NS(=O)(=O)c2ccc(Br)cc2)c1 (stereo not given),·,·,·,-4,0.1,
O=C(C1CCN(c2nnc(-n3cccc3)s2)CC1)N1CCN(Cc2ccc3c(c2)OCO3)CC1,-10,?,-26,100,2.5,Arbovirus anti repeat=-4
O=S1(=O)CCN2C(c3ccco3)=CSC2=N1,-9,-10%,-44,-10,0.0,
Cc1oc(-c2cccc(Cl)c2)nc1CN1CCCC(C(=O)NC(C)c2ccc3c(c2)OCCO3)C1 (stereo not given),-22,·,·,98,5.9,Arbovirus anti repeat=-21

# A portion taken from the entries so far, for reference:
SMILES,Arbovirus anti,Mtb H37Rv,YopH PTP inh,Mtb betalactam,RecA splice inh,others
Brc1cc(Br)c2nc3c(cc2c1)CCC3,·,·,·,46,-2.1,
O=C(NCc1ccncc1)C1CCC(=O)N(CCc2ccc(Cl)cc2)C1 (stereo not given),·,·,·,-1,1.4,
O=C(NCC(c1ccco1)N1CCCCC1)c1cccc(NS(=O)(=O)c2ccc(Br)cc2)c1 (stereo not given),·,·,·,-4,0.1,
O=C(C1CCN(c2nnc(-n3cccc3)s2)CC1)N1CCN(Cc2ccc3c(c2)OCO3)CC1,-10,?,-26,100,2.5,Arbovirus anti repeat=-4
O=S1(=O)CCN2C(c3ccco3)=CSC2=N1,-9,-10%,-44,-10,0.0,
Cc1oc(-c2cccc(Cl)c2)nc1CN1CCCC(C(=O)NC(C)c2ccc3c(c2)OCCO3)C1 (stereo not given),-22,·,·,98,5.9,Arbovirus anti repeat=-21

# (next part)
SMILES,Arbovirus anti,Mtb H37Rv,YopH PTP inh,Mtb betalactam,RecA splice inh,others
COc1ccc(CCNC(=O)CC2SC(=NCCc3ccccc3)NC2=O)cc1 (stereo not given),3,5%,-1,70,-3.0,
CCCN1CCN(CCCNC(=O)c2cc3c(s2)-c2c(C)cccc2OC3)CC1,·,·,·,3,-40,
COc1ccc(C(=O)C2CCCN(Cc3cccn3-c3ccc(Cl)cn3)C2)c(OC)c1 (stereo not given),-37,24%,·,21,1.7,
CCOC(=O)c1cnc2c([N+](=O)[O-])cnn2c1C,-1,-11%,·,0,0.5,
C/C(=N\NC(N)=S)c1ccncc1,·,-10%,·,59,-0.2,
Cc1ccccc1-c1noc(C(C)NC(=O)c2ccco2)n1 (stereo not given),·,·,·,5,0.3,
CCC1CCc2c(sc3nc(SCC(=O)NCc4ccco4)n(-c4ccccc4)c(=O)c23)C1 (stereo not given),-3,8%,-40,70,-0.3,
CCOc1cccc(/C=N/NS(=O)(=O)c2ccc(C)c([N+](=O)[O-])c2)c1O,13,1%,·,-7,-1.3,
Cc1occc1C(=O)n1cnc2ccccc21,1,-7%,-12,-9,0.4,
O=c1c2oc3nc4c(cc3c2ncn1CCCc1ccccc1)CCCC4,·,4%,·,5,-0.7,
O=C(c1cccc([N+](=O)[O-])c1)c1ccc2c(c1)OCCOCCOCCO2,·,6%,·,-4,-1.5,
CCOC(=O)c1[nH]ncc1CN1CCc2ccc(NC(=O)C3CCCO3)cc2C1 (stereo not given),·,·,·,-4,-1.0,
COc1ccc2c(c1)c(C(C)=O)c(C)n2-c1ccccc1OC,·,·,·,-5,-0.2,
